Bioassay records (PubChem BioAssay)
Mtb MenB inh: blocks the Mycobacterium tuberculosis MenB enzyme. MenB enzyme assay, absorbance read-out; some hits fall short of the stated cut. inhibition, %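 (about 12 µg/mL by stock and volumes)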. 100,000 tested, 0.43% active. P9WNP5;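 active means mean of two replicates above 30%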;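 further: 0% = no compound and 100% = wells with inactive enzyme; the first replicate is given; strong numbers were not always called active; inactives centre near -10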
Polio RdRp inh: poliovirus RNA polymerase inhibition; poliovirus polymerase elongation, fluorescence polarization; stronger effect = lower value; % elongation, % (compound at 16.7 µg/mL); 150,000 tested, 0.66% active; P03300; in the data active means % elongation below about 90%; further: some results filed as inactive read as strong as hits
Target sequence (P03300 1749-2209 limits assumed): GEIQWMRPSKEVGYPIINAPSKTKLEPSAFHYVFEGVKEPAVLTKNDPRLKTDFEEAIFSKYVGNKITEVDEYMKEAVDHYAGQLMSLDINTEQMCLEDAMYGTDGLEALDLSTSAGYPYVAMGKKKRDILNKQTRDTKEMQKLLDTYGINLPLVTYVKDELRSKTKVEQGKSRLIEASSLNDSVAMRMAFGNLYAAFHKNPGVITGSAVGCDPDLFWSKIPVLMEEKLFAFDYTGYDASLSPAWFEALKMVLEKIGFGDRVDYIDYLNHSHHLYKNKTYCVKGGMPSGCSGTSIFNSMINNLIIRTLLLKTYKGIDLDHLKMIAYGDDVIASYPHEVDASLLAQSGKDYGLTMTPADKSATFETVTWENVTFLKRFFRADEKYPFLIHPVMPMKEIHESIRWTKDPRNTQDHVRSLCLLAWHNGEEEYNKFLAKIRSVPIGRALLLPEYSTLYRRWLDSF
Mtb MbtI inh: MbtI salicylate synthase inhibition. purified MbtI enzyme, fluorescence intensity read-out. AID 493033. inhibition, %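 (about 17 µg/mL by stock and volumes)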. P9WFX0. 100,000 tested, 0.89% active;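 active means above 50% in both replicates, above 80% if mildly self-fluorescent; inactive means the rest, strongly fluorescent compounds included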;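 further: 0% = mean of negative and 100% = mean of positive controls; one replicate is shown; some compounds called inactive have numbers as strong as hits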
Target sequence (P9WFX0 whole entry, looked up): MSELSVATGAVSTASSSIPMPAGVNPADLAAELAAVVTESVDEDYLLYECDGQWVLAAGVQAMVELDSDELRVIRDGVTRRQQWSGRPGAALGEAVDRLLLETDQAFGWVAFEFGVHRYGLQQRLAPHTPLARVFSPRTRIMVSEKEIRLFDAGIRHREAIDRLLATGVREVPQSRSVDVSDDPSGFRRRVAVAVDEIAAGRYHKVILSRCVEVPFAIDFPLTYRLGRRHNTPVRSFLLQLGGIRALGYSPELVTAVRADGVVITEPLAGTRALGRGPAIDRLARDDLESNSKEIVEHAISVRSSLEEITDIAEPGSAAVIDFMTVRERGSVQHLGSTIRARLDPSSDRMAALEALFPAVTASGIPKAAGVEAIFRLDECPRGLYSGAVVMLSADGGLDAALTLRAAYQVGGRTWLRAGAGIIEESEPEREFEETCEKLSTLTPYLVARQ
Polio RdRp inh intensity: second read-out of Polio RdRp inh, no call of its own (marks repeat the call); % elongation; measured here: total intensity read-out; formula for this scale not given here;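 total fluorescence in place of polarization; lower means less elongation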
* hit, by the source's call; i = inactive; x = not tested or not shown.

SMILES | Mtb MenB inh | Polio RdRp inh | Polio RdRp inh intensity | Mtb MbtI inh
O=C(COc1ccc(S(=O)(=O)N2CCOCC2)cc1)N1CCN(Cc2ccc3c(c2)OCO3)CC1 | -28 | 99 | 100 | -2
CN(C)CCN=c1cc(-c2ccccc2)oc2ccc(Cl)cc12 | 2 | 95 | 92 | 0
N=C1S/C(=C\c2ccc(-c3ccccc3F)o2)C(=O)N1c1ccc2c(c1)OCO2 | -11 | 99 | 105 | -26
O=C(NCCN1CCCC1)c1cc(Sc2cccc(Cl)c2)nc2ccccc12 | -4 | 100 | 101 | 13
COC(CNC(=O)c1cc2c(C)nc3ccccc3c2o1)OC | -1 | 99 | 103 | 147
COc1ccc(CNC(=O)C(C)N2CCN(c3ccc(C(F)(F)F)cn3)CC2)cc1 (configuration not stated) | -11 | 101 | 103 | -2
O=c1cc(O)c2sc3nc(-c4ccncc4)ccc3c2[nH]1 | 15 | 101 | 105 | 5
CC(Nc1ccc2c(c1)OCCO2)C(=O)NC1CCCC1 (configuration not stated) | -6 | 107 | 113 | -11
CC(C)CNC(=S)Nc1ccccc1 | -20 | 102 | 104 | -1
Cc1csc(SCC(=O)Nc2cc(C(C)(C)C)no2)n1 | -11 | 104 | 103 | -3
O=C(OCC(=O)N1CCCCC1)c1sc2ccccc2c1Cl | x | 102 | 97 | 0
COc1ccc(-c2cc(C(=O)NN)n(-c3ccccc3)n2)cc1 | 13 | 105 | 100 | -1
N#CCC(=O)N1CCCCCC1 | 5 | 100 | 100 | -16
CN(C)S(=O)(=O)c1ccc(C(=O)NN2CC(=O)NC2=O)cc1 | 3 | 103 | 105 | -3
O=C(COC(=O)COc1ccc(Cl)cc1)NC1CC1 | -18 | 103 | 107 | -1
C=CCn1c(CSc2nc3ccccc3s2)nnc1SCC(=O)NCc1ccco1 | -24 | 99 | 101 | 15
O=C(Cn1cc(S(=O)(=O)Cc2ccccc2)c2ccccc21)Nc1nccs1 | -25 | 105 | 106 | -8
COc1cccc(C(CC(=O)Nc2cccc3ccccc23)NC(=O)c2ccccc2)c1 (configuration not stated) | -15 | 112 | 107 | x
CC1Cc2cc(C(=O)Cn3nnc4ccccc4c3=O)ccc2N1S(C)(=O)=O (configuration not stated) | -5 | 103 | 109 | 13
CC1=C(C(=O)Nc2ccccc2)SCCO1 | -19 | 106 | 107 | x
CCNC(=O)c1cccc(OCc2c(C)noc2C)c1 | -5 | 102 | 98 | -6
CCOC(=O)Cc1csc(NC(=O)CSc2nc(=O)[nH]c3c2CCC3)n1 | -20 | 97 | 106 | 3
Clc1ccc(CSc2nc3ccccc3s2)cc1 | -10 | 100 | 103 | -67
O=C(Cc1ccc(F)cc1)N1CCCCC1 | 3 | 104 | 102 | -7
O=C(Nc1cccnc1)c1cccs1 | 15 | 100 | 104 | 15
CCn1cc(S(=O)(=O)N2CCc3ccccc3C2)cn1 | -3 | 101 | 103 | 2
N=C1C(c2nc3ccccc3[nH]2)=C(O)CN1C1CCCCCC1 | -16 | 102 | 106 | -5
CCOC(=O)C(CC)Sc1nnc(COc2ccc(Cl)c(C)c2)n1CC (configuration not stated) | -17 | 101 | 101 | 4
CC1CCN(c2nc3ccccc3nc2N2CCC(C)CC2)CC1 | 4 | 103 | 104 | 7
N#CC1(NC(=O)COC(=O)c2ccccc2C(F)(F)F)CCCC1 | -8 | 102 | 104 | -5
COc1cc(C2Sc3ccccc3NC3=C2C(=O)OC3)cc(OC)c1OC (configuration not stated) | -2 | 104 | 97 | x
CCCCC1(COC(=O)c2ccc(OC)cc2)C(=O)N(c2ccccc2)N(c2ccccc2)C1=O | -7 | 103 | 96 | -11
COc1cc(C(=O)OCc2cc(=O)c(O)co2)ccc1OC(F)F | -57 | 104 | 108 | -5
O=C(CN1C(=O)CSc2ncccc21)NCc1ccccc1 | 14 | 101 | 102 | 2
CCN1CCN(CC2=CCC3CC2C3(C)C)CC1 (configuration not stated) | -22 | 99 | 103 | -7
O=C(NCCN1CCc2ccccc2C1)c1cc(-c2ccc(Br)s2)nc2ccccc12 | -26 | 101 | 103 | -9
Cc1cnc(NC(=O)c2ccco2)s1 | 2 | 103 | 106 | 57
CCC1=NCC(=O)Nc2ccc(Cl)cc21 | -13 | 90 | 125 | x
CN1CCCc2cc(-c3ccnc4ccccc34)ccc21 | -14 | 109 | 102 | x
CN(C)C(=O)CSc1nnc(C23CC4CC(CC(C4)C2)C3)o1 | -16 | 102 | 103 | -4
O=C(OCC(=O)N1CCOCC1)c1ccc(Cl)cc1 | 0 | 106 | 109 | -10
Cc1csc(SCC(=O)c2ccc3c(c2)NC(=O)CO3)n1 | 18 | 114 | 130 | 13
Cc1noc(C)c1COC(=O)c1ccc2c(c1)C(=O)N(Cc1ccccc1)C2=O | -39 | 105 | 111 | -11
COC(=O)c1cc2c(s1)CCCC2 | -21 | 96 | 102 | 49
C=CCNC(=O)c1cc(Br)cs1 | -8 | 100 | 103 | -16
Cc1ccc(S(=O)(=O)Cn2nnnc2CN(Cc2ccco2)Cc2cccs2)cc1 | -92 | 102 | 101 | 6
CSc1nsc(SCC(=O)Nc2ccccc2)n1 | -72 | 101 | 101 | 10
O=C(Cn1ncc2ccccc21)N1CCC(Cc2ccccc2)CC1 | -26 | 104 | 105 | 6
COC(=O)C1=C(C)OC(N)=C(C#N)C12C(=O)N(C)c1ccccc12 (configuration not stated) | 4 | 105 | 98 | x
CCOc1cc(NC(=O)[C@@H](NC(=O)c2ccco2)C(C)C)c(OCC)cc1NC(=O)c1ccccc1 | 4 | 100 | 105 | 1
Cc1cc(C)c2[nH]c(=O)c(CN(C3CCCCC3)C(c3nnnn3Cc3ccco3)C(C)C)cc2c1 (configuration not stated) | -44 | 104 | 111 | 82
CCc1ccccc1NC(=O)CCN1C(=O)c2ccccc2C1=O | -1 | 101 | 98 | 5
O=C(O)C1C2C=CC(C2)C1C(=O)OCc1ccccc1 (configuration not stated) | -2 | 99 | 100 | -9
O=C(O)c1cc(-n2c(-c3cnccn3)n[nH]c2=S)ccc1Cl | -27 | 103 | 103 | 6
N#Cc1nc(=O)n(-c2ccc(OC(F)(F)F)cc2)c(N)c1N=Cc1ccc(C(F)(F)F)cc1 | 3 | 107 | 115 | -358
CC(C)[C@H](O)CC[C@@H](C)[C@H]1CC[C@H]2[C@@H]3CC=C4C[C@@H](O)CC[C@]4(C)[C@H]3CC[C@]12C | x | 102 | 101 | -15
CC(C)(O)c1nnn(Cc2ccccc2)c1C(C)(C)O | -5 | 102 | 112 | x
O=S(=O)(c1ccc(Sc2nnc(-c3cccs3)n2CC2CCCO2)nc1)N1CCCC1 (configuration not stated) | -22 | 99 | 102 | -6
CC(=O)n1nc(-c2cccnc2)nc1NCc1ccco1 | -29 | 102 | 100 | -46
CCCCC(=O)Nc1ccc2[nH]c(=O)oc2c1 | 16 | 101 | 99 | -7
Following part:
SMILES | Mtb MenB inh | Polio RdRp inh | Polio RdRp inh intensity | Mtb MbtI inh
CCCCCC12CCC(O)(CC1)CC2 | 2 | 100 | 102 | -4
CC(C)C(=O)Nc1cccc(Cl)c1Cl | 8 | 99 | 103 | 0
C=CCn1c(SCC(=O)Nc2ccc(C)cc2)nc2sc3c(c2c1=O)CCCC3 | -18 | 103 | 107 | -1
CN(C)c1cccc(C(=O)N(Cc2ccc3c(c2)OCO3)C2CCCC2)c1 | -33 | 107 | 99 | -18
CN1C(=O)NC(NC(=O)c2ccccc2)(C(F)(F)F)C1=O (configuration not stated) | -12 | 102 | 100 | 2
CC(=O)Oc1cnc2ccc(C)cc2c1 | -22 | 101 | 100 | i
O=C(NCc1cccnc1)C1c2ccccc2C(=O)N1Cc1ccco1 (configuration not stated) | 15 | 100 | 103 | 12
CCc1ccc(NC2=NCCCS2)cc1 | 11 | 98 | 106 | 8
CCOc1ccc2nc(SCC(=O)N3CCOCC3)sc2c1 | -6 | 110 | 107 | x
Cc1nnc(C)n1/N=C/c1ccc(Cl)c(Cl)c1 | x | 103 | 103 | 5
CCc1ccc(NC(=O)CN(C(=O)N2CCN(CC)CC2)S(=O)(=O)c2ccc(C)cc2)cc1 | -4 | 103 | 104 | -10
O=C(Nc1c[nH]c(=O)[nH]c1=O)c1cccc(N2C(=O)CCC2=O)c1 | -2 | 102 | 104 | 8
CC(C)OC(=O)COc1ccc2ccc(=O)oc2c1 | -9 | 99 | 94 | 103
CN(Cc1cccc(Cl)c1)C1CCN(C(=O)NCc2ccccc2)CC1 | 12 | 100 | 102 | 4
NCCc1ccc2c(c1)OCCO2 | -22 | 101 | 104 | 8
CC(=O)NC(Cc1c[nH]c2ccccc12)C(=O)N1CCC(=O)CC1 (configuration not stated) | -21 | 105 | 107 | 7
COc1ccc(CCNC(=O)CSc2nc3c(cnn3-c3ccc(Cl)cc3)c(=O)[nH]2)cc1OC | -22 | 101 | 100 | 10
CCCN(CCC)CN1C(=O)S/C(=C/c2ccc(N(CC)CC)cc2)C1=O | -279 | 116 | 116 | -16
Cc1cc2c(cc1S(=O)(=O)N1CC(C)CC(C)C1)OCC(=O)N2 (configuration not stated) | -13 | 104 | 109 | 4
COc1cc(C(C)(C)C)c(OC)cc1C(C)(C)C | -7 | 102 | 109 | -9
O=c1c(Cc2ccccc2)c(O)c2cccc3c4ccccc4n1c23 | 17 | 100 | 99 | 8
CC(C(=O)N=Nc1c(O)[nH]c2ccccc12)n1cnc2ccccc2c1=O (configuration not stated) | 7 | 102 | 101 | 0
N#Cc1cccc(NC(=S)NC(=O)c2cccs2)c1 | -38 | 104 | 99 | -2
O=C1C=C(c2ccccc2)C(O)(c2ccccc2)C1 (configuration not stated) | x | 103 | 103 | 0
CCCn1nnnc1NCc1ccc(F)cc1 | -19 | 104 | 102 | -19
O=C(Sc1ccc(Oc2ccc(SC(=O)c3ccco3)cc2)cc1)c1ccco1 | -79 | 44* | 51* | -2
CN1C(c2ccccc2)CC(=O)CC1c1ccccc1 (configuration not stated) | -9 | 105 | 108 | x
COc1ccc(NC(=O)c2ccc(CSc3ccccn3)cc2)cc1 | -2 | 109 | 107 | x
O=C(O)c1ncoc1-c1cccc(Cl)c1 | -7 | 100 | 105 | -8
C=CCN(C(=O)CSc1nncn2c1cc1occc12)c1ccccc1 | 4 | 102 | 104 | 9
O=C(COCC(=O)c1ccccc1)Sc1nc2ccccc2s1 | -18 | 104 | 111 | x
Cc1cc(C(=O)Sc2ccc(Cl)cc2)nn1C(C)(C)C | -6 | 98 | 95 | -8
Cc1ccc(C)c(C(=O)NCC(C)C)c1 | -2 | 101 | 103 | -18
C=CCn1c2ccccc2c2nnc(SCCC(=O)O)nc21 | -34 | 102 | 101 | 0
Cc1noc(C)c1-c1ccc(Cl)c(C(=O)O)c1 | -124 | 101 | 103 | 20
CC(=O)n1c2ccccc2c2c(-c3ccccc3)c(N3CCOCC3)sc21 | -1 | 102 | 102 | -8
Cc1cc(C)c2[nH]c(=O)c(NC(N)=S)nc2c1 | 5 | 101 | 100 | -2
